# Screening results as filed in PubChem.
# ROMK mod = human ROMK K+ channel modulation, primary screen. P48048. Tet-inducible ROMK, thallium flux fluorescence; actives lie on both sides. B-score at 10 µM. 130,000 compounds, 2% hits. AID 1918;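 active = signal ratio slope over the read window, or its plate-corrected B-score, at least 3 SD from the plate mean, either direction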;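 also: B-score of the F/F0 ratio slope over 7 to 12 s after thallium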
# Target sequence (P48048 whole entry, looked up): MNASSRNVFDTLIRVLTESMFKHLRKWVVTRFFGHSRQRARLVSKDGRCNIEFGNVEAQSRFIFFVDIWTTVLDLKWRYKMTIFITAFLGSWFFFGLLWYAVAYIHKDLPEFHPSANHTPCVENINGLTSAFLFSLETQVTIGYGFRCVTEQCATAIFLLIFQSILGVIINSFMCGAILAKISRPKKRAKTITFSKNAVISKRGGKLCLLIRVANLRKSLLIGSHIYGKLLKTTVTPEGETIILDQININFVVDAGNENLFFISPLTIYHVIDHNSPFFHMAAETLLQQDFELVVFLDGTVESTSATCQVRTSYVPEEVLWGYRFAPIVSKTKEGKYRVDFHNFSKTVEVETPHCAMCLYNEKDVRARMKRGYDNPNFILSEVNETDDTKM
# PPARg SRC3 recr = PPARgamma-driven SRC-3 recruitment agonism. 200,000 compounds, 0.26% hits. biochemical PPARgamma/SRC-3 coactivator recruitment assay. P37231. activation, % at 8 µM; in the data active = activation above about 23%;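 also: 0% = DMSO and 100% = reference agonist; some compounds past the cut are filed as inactive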
# PPARg SRC-1 ag = PPARgamma-driven SRC-1 recruitment agonism. P37231. PPARgamma-SRC-1 coactivator recruitment biochemical assay. activation, % at 8 µM. 200,000 compounds, 0.41% hits. AID 631; in the data active = activation above about 19%;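 also: 0% = DMSO and 100% = reference agonist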
# PPARg SRC2 recr = PPARgamma-driven SRC-2 recruitment agonism; PPARgamma LBD-SRC-2 recruitment, biochemical; 200,000 compounds, 0.34% hits; AID 1032; activation, % at 8 µM; in the data active = activation above about 22%;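 also: 0% = vehicle and 100% = reference agonist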
# SRC2 TRFRET art = TR-FRET artefact, counter-screen to PPARgamma/SRC-2 agonist assay; stronger effect = higher value; 200,000 compounds, 0.4% hits; TR-FRET ratio at 8 µM; in the data active = TR-FRET ratio above about 2000; also: inactives centre near 1500; reference of the scale not given here
# S1P3 antagonist = antagonists of human S1P3 receptor; Q99500; CHO S1P3 NFAT-BLA reporter, FRET fluorescence, antagonist mode; inhibition, % at 4.98 µM; 170,000 compounds, 0.27% hits;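 active = inhibition above the plate cutoff, the mean inhibition of test wells on that plate plus 3 SD, cut at about 28% in these data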;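 also: cells challenged with S1P at its EC80 of 0.8 µM; blue over green emission ratio from cleaved BLA substrate after 4 h stimulation; 0% = S1P-stimulated wells and 100% = unstimulated DMSO-only wells; some compounds past the cut are filed as inactive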
# * = called active by the depositor; nt = not tested or not shown; & = joins results of further samples.
No. | canonical_smiles | ROMK mod | PPARg SRC3 recr | PPARg SRC-1 ag
1 | COc1cc(/C=C/C(=O)CC(=O)/C=C/c2ccc(O)c(OC)c2)ccc1O | nt | 2.6 | 6.2
2 | O=C(NNC(=S)NC(=O)c1ccccc1[N+](=O)[O-])c1ccccc1[N+](=O)[O-] | 0.142 | 2.2 | 10.2
3 | CCCCC1=NC2(CCCC2)C(=O)N1Cc1ccc(-c2ccccc2-c2nn[nH]n2)cc1 | nt | 9.4 | 2.7
4 | NS(=O)(=O)c1cc2c(cc1Cl)NC=NS2(=O)=O | nt | 0.0 | 2.9
5 | O=C(/C=C/c1ccccc1)Nc1ncn[nH]1 | nt | -9.6 | -0.1
6 | O=C(CCCN1CC=C(n2c(=O)[nH]c3ccccc32)CC1)c1ccc(F)cc1 | nt | -0.2&-3.1 | 4.2&2.6
7 | O=C(Nc1ncn[nH]1)c1ccc(Cl)c(S(=O)(=O)Nc2ccc(Cl)cc2)c1 | nt | -0.8 | -0.1
8 | CN1CCc2cccc3c2[C@@H]1Cc1ccc(O)c(O)c1-3 | nt | 1.9 | 16.5
9 | CCCc1cc(=O)[nH]c(-n2[nH]c3c(c2=O)CCCC3)n1 | nt | -6.5 | 6.8
10 | Cc1nc2ccccc2c(-c2ccccc2)c1CC(=O)O | nt | 1.7 | 6.7
11 | COc1ccc(OC)c(S(=O)(=O)Nc2cnc3ccccc3c2)c1 | nt | -0.7 | -7.0
12 | O=C(CCc1ccccc1)Nc1ncn[nH]1 | 0.579 | 2.5 | 3.1

No. | PPARg SRC2 recr | SRC2 TRFRET art | S1P3 antagonist
1 | 9.8 | 1699 | -9.8
2 | 8.1 | 1683 | nt
3 | -2.5 | 1458 | -14.2
4 | 0.6 | 1601 | -4.9
5 | 2.8 | 1542 | nt
6 | -4.3&-1.8 | 1486&1624 | -9.5&-17.8
7 | -6.4 | 1448 | 1.6
8 | 13.9 | 1630 | -6.5
9 | 11.5 | 1578 | nt
10 | 4.1 | 1693 | -2.9
11 | -8.9 | 1418 | -23.4
12 | 5.8 | 1604 | 14.6

# Given with bars between the fields: part of the list above
item | SMILES | ROMK mod | PPARg SRC3 recr | PPARg SRC-1 ag | PPARg SRC2 recr | SRC2 TRFRET art | S1P3 antagonist
6 | O=C(CCCN1CC=C(n2c(=O)[nH]c3ccccc32)CC1)c1ccc(F)cc1 | nt | -0.2&-3.1 | 4.2&2.6 | -4.3&-1.8 | 1486&1624 | -9.5&-17.8
7 | O=C(Nc1ncn[nH]1)c1ccc(Cl)c(S(=O)(=O)Nc2ccc(Cl)cc2)c1 | nt | -0.8 | -0.1 | -6.4 | 1448 | 1.6
8 | CN1CCc2cccc3c2[C@@H]1Cc1ccc(O)c(O)c1-3 | nt | 1.9 | 16.5 | 13.9 | 1630 | -6.5
9 | CCCc1cc(=O)[nH]c(-n2[nH]c3c(c2=O)CCCC3)n1 | nt | -6.5 | 6.8 | 11.5 | 1578 | nt
10 | Cc1nc2ccccc2c(-c2ccccc2)c1CC(=O)O | nt | 1.7 | 6.7 | 4.1 | 1693 | -2.9

# More results follow.
No. | canonical_smiles | ROMK mod | PPARg SRC3 recr | PPARg SRC-1 ag
13 | c1ccc(-c2ccc(-c3cn4c(n3)CCC4)cc2)cc1 | -0.901 | 9.3 | 8.0
14 | O=C(O)[C@@H]1CCCC[C@@H]1C(=O)N1CCc2ccccc2C1CN1C(=O)c2ccccc2C1=O (stereo partly drawn) | nt | 1.9 | 1.6
15 | Cc1ccc(NC(=S)NNC(=O)c2cn(C)nc2C)cc1 | nt | 1.3 | 3.5
16 | O=C(N/N=C/c1ccc([N+](=O)[O-])o1)c1ccc(O)cc1 | nt | -1.9 | 10.6
17 | CN1CCc2cccc3c2[C@H]1Cc1ccc(O)c(O)c1-3 | nt | -1.0 | 8.8
18 | Cc1ccccc1-n1nc(CSc2nc3ccccc3[nH]2)c(-c2ccccc2)c1N | nt | 7.0 | -3.3
19 | O=C(NNc1ccccn1)C(=O)NNS(=O)(=O)c1ccc(Cl)cc1 | nt | 13.2 | -3.5
20 | Cc1ccc(SC(C)C(=O)Nc2ncn[nH]2)cc1 (stereo not drawn) | nt | -1.0 | 4.8
21 | CC1CC(C)(C)NCCNC(C)CC(C)(C)NCCN1 (stereo not drawn) | 0.232 | 2.2 | 10.6
22 | C(=N\C(/N=C/c1ccco1)c1ccco1)/c1ccco1 | nt | -1.2 | 0.8

No. | PPARg SRC2 recr | SRC2 TRFRET art | S1P3 antagonist
13 | 7.1 | 1622 | nt
14 | -0.8 | 1477 | -37.3
15 | 0.7 | 1701 | nt
16 | 10.4 | 1570 | -18.6
17 | 14.1 | 1655 | 5.7
18 | 13.1 | 1678 | 17.4
19 | 8.4 | 1648 | nt
20 | 10.0 | 1603 | -43.0
21 | 5.3 | 1734 | -3.4
22 | 15.0 | 1592 | -0.2

# Another view of some results above:
[15] Cc1ccc(NC(=S)NNC(=O)c2cn(C)nc2C)cc1
[16] O=C(N/N=C/c1ccc([N+](=O)[O-])o1)c1ccc(O)cc1
[17] CN1CCc2cccc3c2[C@H]1Cc1ccc(O)c(O)c1-3
[18] Cc1ccccc1-n1nc(CSc2nc3ccccc3[nH]2)c(-c2ccccc2)c1N

assay / compound	15	16	17	18
ROMK mod	nt	nt	nt	nt
PPARg SRC3 recr	1.3	-1.9	-1.0	7.0
PPARg SRC-1 ag	3.5	10.6	8.8	-3.3
PPARg SRC2 recr	0.7	10.4	14.1	13.1
SRC2 TRFRET art	1701	1570	1655	1678
S1P3 antagonist	nt	-18.6	5.7	17.4

# An excerpt; rates above refer to the full screens.
